# miR-21 FLuc – qHTS Assay for Modulators of miRNAs and/orActivators of miR-21. HeLa miR-21 FLuc reporter, luciferase, 48 h. Potency, µM (series often up to 38.3 µM), for the others: at the highest dose reporter change, positive = more light. 340,000 tested, under 10 active. AID 2288, 2010; active = well fitted rising curve with a large enough effect; inconclusive = small, poorly fitted or top-dose-only effect; inactive = no such curve, though single readings can be large or run the other way;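 further: % of control where 0% means no effect; miR-21 action dims this reporter so a rising signal means less miR-21 action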
#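 HeLa miR-21-FLuc reporter line, endogenous miR-21; 2000 cells/well in DMEM/10% FBS; compound titration up to ~40uM final, 48 h, 37 degree Celsius; luciferase detection reagent, 15 min lysis, CCD luminescence.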
# GLA inh pH 4.5 – qHTS Assay for Inhibitors of Human alpha-Galactosidase at pH 4.5 | Alpha-galactosidase A (Homo sapiens), P06280 | purified enzyme, 4-MU-alpha-Gal fluorescence, pH 4.5 | activity change, negative = inhibition, % at 105 µM | 230,000 tested, under 10 active; inconclusive = small, poorly fitted or top-dose-only inhibition, or a rising curve; inactive = flat fitted curve, though single readings scatter; no compound was filed as active;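 further: 0% = full activity with enzyme and -100% = basal without enzyme; dose as in the result columns while the protocol names 77 µM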
# Target sequence (P06280 whole entry, looked up): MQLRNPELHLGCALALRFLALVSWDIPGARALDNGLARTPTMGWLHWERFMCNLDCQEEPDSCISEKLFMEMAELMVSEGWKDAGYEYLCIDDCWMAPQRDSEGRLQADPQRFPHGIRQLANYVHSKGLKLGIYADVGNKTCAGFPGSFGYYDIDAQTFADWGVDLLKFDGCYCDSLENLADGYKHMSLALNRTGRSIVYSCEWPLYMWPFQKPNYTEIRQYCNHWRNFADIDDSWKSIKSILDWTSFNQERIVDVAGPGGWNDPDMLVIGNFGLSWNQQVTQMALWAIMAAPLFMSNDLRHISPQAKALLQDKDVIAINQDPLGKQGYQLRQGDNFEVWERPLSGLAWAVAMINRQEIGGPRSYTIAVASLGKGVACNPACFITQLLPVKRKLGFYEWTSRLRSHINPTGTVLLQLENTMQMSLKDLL
# Rango release inh – qHTS Assay for Inhibitors of RanGTP induced Rango (Ran-regulated importin-beta cargo) - Importin beta complex dissociation. Snurportin-1 (Homo sapiens) + GTP-binding nuclear protein Ran (Homo sapiens) + Importin …. Biochemical FRET Rango-importin beta, RanGTP-induced dissociation. Potency, µM (titrated, usually from 46.1 µM), inactives show at the top dose activity change, negative = inhibition. actives 0.071% (n = 340,000). AID 540253, 2011; active means falling FRET ratio curve, often poorly fitted, with flat reads before Ran was added; inconclusive means other falling curves, or compound fluorescence or quenching; inactive means flat or rising ratio curve;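 further: potency means the concentration at half of the fitted maximal effect; % of control where 0% means no effect; nearly all actives have a fitted effect of over 45% in size; -100% = wells without RanGTP and RCC1; the record marks most hits as doubtful in a second field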
#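 Compounds preincubate 5 min with complex of recombinant Rango and importin beta in PBS with 1 mM DTT. Ran (0.6 uM) loaded with 2 mM GTP plus 0.2 uM RCC1 starts dissociation; FRET is recorded 45 min later.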
# Rango-impB inh – qHTS Assay for Inhibitors of Rango (Ran-regulated importin-beta cargo) - Importin beta complex formation. Potency, µM (doses to about 92.2 µM), without a hit: at the highest dose inhibition of complex formation. actives 0.031% (n = 340,000). Importin subunit beta-1 (Homo sapiens), Q14974. AID 540263, 2011. Rango CFP/YFP FRET sensor + importin beta, 45 min; active = rising FRET ratio curve, often small or poorly fitted; inconclusive = mostly compound fluorescence or quenching in the first reads; inactive = flat curves in all reads;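 further: potency means the concentration at half of the fitted maximal effect; 0% = DMSO wells and 100% = buffer wells lacking importin beta; nearly all actives have a fitted effect of over 15% in size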
#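 FRET biosensor Rango (snurportin 1 IBB between N-terminal EYFP and C-terminal Cerulean), 50 nM in PBS/1 mM DTT/0.02% Tween-20/0.1% BSA, preincubated 5 min RT with compound; 0.125 microM importin beta added, 45 min RT, CFP/YFP FRET ratio read.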
# * = called active by the depositor; ? = inconclusive; . = not tested or not shown; [ ] = dose if it differs, or a comment.
SMILES,miR-21 FLuc,GLA inh pH 4.5,Rango release inh,Rango-impB inh
Cc1ccc(/C=N/NC(=O)c2c(C)nc3ccc(Br)cn23)cc1,24.1%,.,-2.8%,0.5%
Cc1c(C(C)NC(=O)c2ccc3nc(Cc4ccccc4F)oc3c2)cnn1C (stereo not drawn),-21.9%,.,-4.8%,-5.4%
O=C(/C=C/c1ccco1)N1CCC(Cc2ccccc2)CC1,-49.1%,-1.7,-3.4%,1.1%
O=C(CN1CCN(S(=O)(=O)c2ccc(F)cc2)CC1)NC1CCCC1,-2.1%,.,-3.9%,?
COc1ccc(C(=O)NCC(=O)N/N=C(\C)c2ccco2)cc1OC,0.0%,-2.1,3.7%,2.9%
CCOc1ccc(NC(=O)CN(C)C(=O)c2ccc(C3SCCS3)cc2)cc1OCC,.,.,1.4%,2.5%
CCSc1nc2ccccc2c(=O)n1Cc1ccc(F)cc1,2.0%,-6.3[21.1 µM],12.7%,-3.5%
C#CCN1C(=O)S/C(=C\c2cc3c(cc2OC)OCO3)C1=O,0.7%,.,?,?
Cc1ccc(C(=O)NCCCn2ccnc2)o1,-1.5%,-1.3,19.5%,0.7%
Cc1cccc(N2C(=O)CC(SC(=Nc3ccccc3)Nc3ccccc3)C2=O)c1 (stereo not drawn),9.3%,-11.5,-7.4%,0.6%
CCN(CCO)c1ccc(NC(=S)Nc2cccc(S(=O)(=O)N(C)C)c2)cc1,-27.8%,-4.6,2.9%,2.0%
CS(=O)(=O)Nc1cccc(-c2cn3ccccc3n2)c1,-40.2%,12.4,0.1%,-1.1%
O=C1CSC(=S)N1c1ccc(F)c(Cl)c1,14.9%,.,0.2%,-0.2%
CC(=O)NCc1ccc(C(=O)O)cc1,-1.5%,-12.9,51.1%,1.8%
Cc1cc(C)c(S(=O)(=O)c2ccccc2)c(OC(=O)c2c(F)cccc2Cl)n1,-1.8%,16.4,-1.3%,0.5%
CCOCC(=O)Nc1cc(C)on1,1.3%,-8.0,8.8%,-5.7%
Cc1ccc(C)c(N2CCN(C(=O)CCC(=O)Nc3nnc(C(F)(F)F)s3)CC2)c1,0.6%,.,3.1%,-0.2%
Cc1ccc(C(=O)N[C@H](C(=O)OCc2cc(=O)oc3cc(C)ccc23)C(C)C)cc1,-1.7%,2.6,-6.6%,-0.1%
CCOC(=O)CSc1nc2c(c(-c3ccc(C)o3)c1C#N)CCCC2,11.1%,1.5,3.4%,-1.1%
CSCC(=O)NC1CCCN(C2Cc3ccccc3C2)C1 (stereo not drawn),-1.8%,.,-2.6%,-2.1%
COc1ccccc1-c1nnc(SCC(=O)O)n1-c1ccccc1,0.8%,5.8,-11.9%,?
COc1ccc(NC(=O)CCc2nnc3ccc(N4CCC5(CC4)OCCO5)nn23)cc1,-0.6%,.,1.9%,1.6%
Cc1cc(C(=O)NNC(=S)NCC(C)C)no1,-0.8%,8.3,-15.9%,-1.1%
Cc1cc(C(=O)Nc2cccc(-c3ccc(N4CCOCC4)nn3)c2)ccc1[N+](=O)[O-],.,.,0.6%,0.5%
CN(C)c1ccc(-c2nn3c(-c4ccc(Cl)cc4Cl)nnc3s2)cc1,1.1%,2.3,.,.
CN(C)c1ccnc(Nc2ccc(O)cc2)c1C#N,-1.5%,1.1,-25.9%,?
CC(=O)Nc1c(Cl)cc([N+](=O)[O-])c2ccccc12,2.3%,-2.4,-1.2%,-1.3%
O=C(CCCOc1ccccc1)NC1CCCc2ccccc21 (stereo not drawn),-4.3%,-16.5,23.2%,1.7%
CCn1c(N)c(C(=O)NCc2ccco2)sc1=S,-15.3%,-2.0,14.2%,5.8%
Cc1ccccc1NC(=O)Cc1nc(COC(=O)c2ccc(Cl)c(S(N)(=O)=O)c2)cs1,.,.,-5.8%,2.5%
CC1CN(c2nc(N(C)c3ccccc3)nc(N)c2[N+](=O)[O-])CC(C)O1 (stereo not drawn),-0.4%,.,4.9%,0.4%
CCC(=O)c1ccc(OCCN2CCOCC2)cc1,-18.0%,5.1,-15.3%,1.6%
COc1ccccc1C(=O)NCCCCNC(=O)c1ccccc1OC,.,.,-2.0%,-1.2%
Cc1cccc(CNC(=O)c2ccc(NC(=O)C3=CSCCO3)cc2)c1,-47.2%,.,11.5%,-9.2%
Cc1cccc(N2CCCn3c2nc2c3c(=O)n(CCN3CCOCC3)c(=O)n2C)c1,-6.0%,2.1,0.8%,-3.9%
CCOC(=O)c1sc(=S)n(C)c1C,-8.8%,-4.7,2.6%,4.5%
CCOC(=O)C1CCN(C(=O)CN(c2cc(Cl)ccc2OC)S(=O)(=O)c2ccccc2)CC1,-2.7%,.,13.8%,-2.1%
CCCNS(=O)(=O)c1cccc2cccnc12,-1.5%,0.2,31.4%,-6.5%
COCc1[nH][nH]c(=O)c1C=NCC(=O)OC,4.2%,2.1,-4.1%,2.8%
O=C(CN1CCN(Cc2ccccc2)CC1)NC(=O)NC1CCCCC1,0.4%,-3.7,15.8%,-1.0%
O=[N+]([O-])c1cc2c(c(CSc3nnc(Nc4ccccc4)s3)c1)OCOC2,1.1%,-0.3,0.1%,-1.2%
Cc1cc(N(C)C(=O)c2ccc3c(c2)S(=O)(=O)c2cc(Cl)ccc2C3=O)c(C(F)(F)F)o1,.,.,5.3%,-3.1%
COc1ccc(NC(=O)O/N=C/c2ccncc2)cc1,-52.0%,0.0,5.7%,-0.1%
COc1ccc(/C=N/NC(=O)c2cc(-c3cccnc3)nc3ccccc23)c(OC)c1,0.0%,5.8,-5.0%,-2.2%
CCC(C)N1CC(O)=C(c2nc3ccccc3[nH]2)C1=N (stereo not drawn),-40.1%,2.4,3.3%,2.3%
O=C(COC(=O)CCC1CCCC1)Nc1ccc(Cl)cc1F,0.3%,-14.9,0.4%,-0.6%
O=S(=O)(Nc1ccccc1Cl)c1cccc2nsnc12,-7.2%,.,49.2%,2.1%
NC(=O)/C(=C/c1ccco1)NC(=O)/C=C/c1ccccc1,-6.7%,-1.4,3.5%,1.8%
Cn1cc(SCC(=O)NC2CCCC2)c2ccccc21,-2.0%,.,20.7%,-1.7%
CCCn1c(SCC(=O)N2CCc3ccccc3C2)nc(O)cc1=O,.,.,-10.2%,-3.6%

# (listing goes on)
SMILES,miR-21 FLuc,GLA inh pH 4.5,Rango release inh,Rango-impB inh
O=C(C1CCN(S(=O)(=O)c2cnc[nH]2)CC1)N1CCc2ccccc2C1,-0.5%,-0.6,10.6%,6.3%
Cc1cc(NC(=O)CCN2CCN(C)CC2)ccc1Br,-10.3%,.,-0.1%,?
COc1ccc(Cl)cc1NC(=O)CCN1C(=O)C2CC=CCC2C1=O (stereo not drawn),6.8%,.,-4.6%,-3.3%
CCOc1ccc(-c2noc(-c3cccnc3)n2)cc1OC,-44.0%,2.1,-13.6%,1.2%
COc1cc(NCCC(=O)c2cccs2)c(OC)cc1Cl,4.3%,-0.9,-9.1%,-4.2%
O=C(CCc1ccccc1)Nc1cccnc1,-38.8%,.,-5.2%,5.0%
CCOC(=O)c1c(C)[nH]c(C)c1C(=O)COC(=O)Cc1ccc(OC)c(OC)c1,.,.,13.1%,0.5%
CC(C)C(=O)Nc1nnc(SCC(=O)NC2CC2)s1,-1.2%,4.8,-14.5%,?
COc1ccc(-c2cc(C(=O)N(C)Cc3ccccc3)c3ccccc3n2)cc1,4.3%,.,3.9%,2.1%
CCc1noc(C)c1C(=O)NNC(=O)COc1cc(C)ccc1C,.,.,0.5%,5.4%
Cc1cccc(NS(=O)(=O)c2cccc(C(=O)NCCCN3CCCC3=O)c2)c1,.,.,34.2%,-4.1%
CCOC(=O)/C(C#N)=C(\O)c1ccc(NC(=O)c2ccc([N+](=O)[O-])cc2)cc1,0.9%,-0.1,-5.7%,7.1%
CC1=C(C)CC(C(=O)c2ccc(C)cc2)C(C(=O)O)C1 (stereo not drawn),1.3%,8.3,-11.9%,1.2%
CC(=O)N1CCC(N(CCN2CCOCC2)C(=S)Nc2ccc(C)c(C)c2)CC1,0.9%,-5.5,-1.8%,-1.7%
CN(C)CCNC(=O)CNC(=S)N(CCCN1CCOCC1)Cc1cccs1,3.0%,-16.2,5.1%,-7.6%
Cc1ccc(C(=O)c2c(NC(=O)c3ccccc3C)sc(C)c2C)cc1,-7.6%,-6.7,12.5%,6.2%
CC1=C(C(=O)Nc2ccccn2)C(c2ccc(N(C)C)cc2)n2ncnc2N1 (stereo not drawn),-26.4%,6.3,-8.6%,2.5%
CN(CC(=O)Nc1cccc(F)c1)C(=O)c1ccc(OCc2cn3ccccc3n2)cc1,.,.,13.6%,-4.1%
CCn1cc[n+](C)c1P(c1ccccc1)c1ccccc1,21.1%,2.8,-0.2%,-4.9%
Nc1c(C(=O)CSc2nnc(Cc3ccccc3)o2)c(=O)[nH]c(=O)n1C1CC1,.,.,3.9%,?
COC(=O)c1ccc(-c2nc3cc(N)ccc3o2)cc1,10.1%,1.8,-3.0%,?
COc1ccc(NC(=O)CN(C)CC(=O)N2CCCCCC2)cc1,.,.,-0.3%,-1.0%
CC(C)c1ccc(C(C(=O)NC2CCCC2)N(C(=O)CNC(=O)c2ccco2)c2cccnc2)cc1 (stereo not drawn),-2.1%,0.0,-6.2%,0.1%
Cc1ccc(S(C)(=O)=O)cc1C(=O)Nc1ccc(S(=O)(=O)Nc2nccs2)cc1,.,.,-15.6%,-2.4%
CCOc1ccc(-n2c(N)c(-c3nc4ccccc4n3C)c3nc4ccccc4nc32)cc1,-3.8%,5.6,?,?
Cc1ccc(Nc2nnc(SCc3cc(=O)n4cc(C)ccc4n3)s2)cc1,-1.7%,4.9,-0.3%,2.7%
Cc1cc(=O)oc2c(C)c(OCC(=O)NCCN3CCOCC3)ccc12,0.3%,.,-2.4%,-0.3%
CSc1nc2ccccc2c(=O)n1N,-0.5%,4.1,3.3%,?
COc1ccc(OC)c(NC(=O)c2cc(-c3c(C)cc(C)cc3O)n[nH]2)c1,-13.8%,.,1.5%,1.1%
Cc1onc(C(=O)N2CCC(C(N)=O)CC2)c1-c1ccccc1Cl,-0.6%,3.7,12.9%,-2.5%

# 5 compounds from above, showing only Rango release inh and Rango-impB inh:
compound,Rango release inh,Rango-impB inh
Cc1cccc(NS(=O)(=O)c2cccc(C(=O)NCCCN3CCCC3=O)c2)c1,34.2%,-4.1%
CCOC(=O)/C(C#N)=C(\O)c1ccc(NC(=O)c2ccc([N+](=O)[O-])cc2)cc1,-5.7%,7.1%
CC1=C(C)CC(C(=O)c2ccc(C)cc2)C(C(=O)O)C1 (stereo not drawn),-11.9%,1.2%
CC(=O)N1CCC(N(CCN2CCOCC2)C(=S)Nc2ccc(C)c(C)c2)CC1,-1.8%,-1.7%
CN(C)CCNC(=O)CNC(=S)N(CCCN1CCOCC1)Cc1cccs1,5.1%,-7.6%

# The listing continues:
SMILES,miR-21 FLuc,GLA inh pH 4.5,Rango release inh,Rango-impB inh
NC1=NN=C(N2N=C(c3ccco3)CC2(O)C(F)(F)F)n2ncnc2C1 (stereo not drawn),2.7%,5.2,-18.4%,2.7%
COC(=O)c1sc(-c2ccc(Cl)cc2)cc1NC(=O)COCC(=O)O,-17.5%,0.7,-7.7%,-1.0%
Cc1[nH]c(=O)[nH]c(=O)c1CSCC(=O)OCC(=O)c1ccc(Br)cc1,0.1%,-1.6,-20.1%,-2.8%
C=CCSc1nc2sc3c(c2c(=O)[nH]1)CC(C)(C)OC3,.,.,21.1%,-1.2%
CC1CCCCC1NC(=O)C1CCN(C(=O)NC2CCCCC2)CC1 (stereo not drawn),1.0%,0.1,1.2%,-2.8%
COc1ccccc1N1CCN(C(=O)c2cc3cc(Cl)ccc3[nH]2)CC1,-3.2%,.,8.5%,-0.5%
CNNC(=S)Nc1ccc(Cl)cc1,1.9%,-3.7,0.4%,-1.6%
OC1CCCN(Cc2ccccc2)C1 (stereo not drawn),-1.7%,-0.1,16.7%,0.2%
O=C(CNCCN1CCOCC1)Nc1ccccc1Sc1ccccc1,-12.1%,-1.8,1.5%,1.1%

# Source: PubChem

# An excerpt; count on the stated rates, not on these rows.
